Source: PubChem BioAssay
KCNQ2 pot = enhances the rat KCNQ2 potassium channel | O88943 | CHO-K1 KCNQ2, FluxOR thallium flux fluorescence; stronger effect = higher value | B-score at 10 µM | hit rate 0.54% among 310,000;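 active = fluorescence ratio B-score at least 3 SD of library B-scores, with initial fluorescence B-score within 3 SD, cut at about 5.3 in these data; same plate scores as AID 2156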;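 also: B-score of peak minus minimum over baseline fluorescence ratio after K+ and Tl+ stimulus; positive B-score means potentiation of KCNQ2 with more thallium influx and brighter signal; only the inactives scoring about 0 or higher are listed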
Target sequence (O88943 whole entry, looked up): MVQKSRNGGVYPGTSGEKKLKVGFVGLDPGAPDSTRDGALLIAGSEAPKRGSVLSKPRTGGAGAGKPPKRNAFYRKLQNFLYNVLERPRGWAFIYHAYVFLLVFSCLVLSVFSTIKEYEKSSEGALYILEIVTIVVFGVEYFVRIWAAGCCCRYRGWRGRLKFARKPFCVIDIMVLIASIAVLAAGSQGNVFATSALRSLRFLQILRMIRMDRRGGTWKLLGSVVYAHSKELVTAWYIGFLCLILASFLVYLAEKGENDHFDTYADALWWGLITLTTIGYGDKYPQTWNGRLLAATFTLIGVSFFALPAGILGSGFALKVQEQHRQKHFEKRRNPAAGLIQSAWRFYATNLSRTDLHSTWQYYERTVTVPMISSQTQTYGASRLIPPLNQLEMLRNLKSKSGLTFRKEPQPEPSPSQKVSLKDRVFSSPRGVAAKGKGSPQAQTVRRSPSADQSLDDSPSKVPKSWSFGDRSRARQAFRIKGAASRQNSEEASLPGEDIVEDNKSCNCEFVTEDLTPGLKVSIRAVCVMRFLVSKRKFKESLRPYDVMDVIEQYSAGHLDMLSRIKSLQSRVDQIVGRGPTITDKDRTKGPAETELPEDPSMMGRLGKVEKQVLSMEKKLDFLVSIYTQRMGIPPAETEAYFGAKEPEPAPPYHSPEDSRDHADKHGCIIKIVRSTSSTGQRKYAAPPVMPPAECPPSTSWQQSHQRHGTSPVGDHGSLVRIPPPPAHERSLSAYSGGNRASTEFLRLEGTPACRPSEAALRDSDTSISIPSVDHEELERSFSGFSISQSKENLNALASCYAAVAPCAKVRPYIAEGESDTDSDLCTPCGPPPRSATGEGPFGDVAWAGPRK
KCNQ2 pot baseline = further read-out of KCNQ2 pot, marked with its call; B-score; compound at 10 µM; measured here: initial fluorescence intensity artifact check;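 brightness before thallium and not channel activity; 0 = typical well and far values either way flag optical interference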
An asterisk follows results filed as active.

SMILES | KCNQ2 pot | KCNQ2 pot baseline
O=C(O)COCC(=O)N1CCN(C2c3ccccc3-c3ccccc32)CC1 | 0.65 | 0.98
Cc1ccccc1CNS(=O)(=O)c1ccccc1[N+](=O)[O-] | 0.52 | -0.19
CCOC(=O)c1cc(-c2ccc(C)c([N+](=O)[O-])c2)nc2c1c(=O)n(C)c(=O)n2C | 1.5 | -1.4
COc1cccc(C(=O)Nc2cc3c(cc2C(C)=O)OCCO3)c1 | 1.6 | -1.6
CCC(=O)Nc1nc(CC(=O)Nc2ccccc2OC)cs1 | 0.21 | -0.26
CC(C)c1ccc(NC(=O)COc2ccc(C3SCCS3)cc2)cc1 | 1 | 1.1
COc1ccc(CCNC(=O)c2ccc3c(c2)NC(=O)C(N2CCOCC2)S3)cc1OC (stereo not drawn) | 0.09 | 0.53
COc1cccc(C2=NOC(C(=O)Nc3ccc(C(C)=O)cc3)C2)c1 (stereo not drawn) | 0.18 | 1.4
Cn1cc([N+](=O)[O-])c(C(=O)NCc2ccccc2)n1 | 0.04 | 0.27
CCOC(=O)C(=CNc1cccc(N)n1)C(=O)OCC | 1.4 | 0.51
Cc1[nH]nc2c1/C(=N\O)CC(C)(C)C2 | 1 | -1.2
CCN=C1SC(C(=O)Nc2cccc(Br)c2)CC(=O)N1CC (stereo not drawn) | 1.1 | -1.4
O=C(NCCNC(=O)c1ccc(F)cc1)c1ccc(F)cc1 | 0.84 | -0.78
CCC(C)NC(=O)C(=O)NCC1CCCN1CC (stereo not drawn) | 0.75 | -0.64
CCN(CC)S(=O)(=O)c1ccc(Cl)c(NC(=O)COC(=O)c2ccc(O)cc2)c1 | 1.5 | 1.1
COc1ccccc1N1CCN(CCN2C(=O)C3CCCCN3C2=O)CC1 (stereo not drawn) | 0.45 | -0.34
CCOC(=O)N1CCN(C(=O)CSc2nnc(-c3ccc(Cl)s3)o2)CC1 | 0.88 | -2.7
CSc1nc(N)nc(C(C)C)n1 | 0.71 | 0.53
O=C(CCN1C(=O)COc2ccccc21)NCCN1CCN(c2ccccc2F)CC1 | 0.99 | -0.52
Cc1ccc(C(=O)NC2CC(C)(C)NC(C)(C)C2)cc1C | 1.2 | -1.3
CN(C)/C=N/c1cc(=O)[nH]c(=O)n1C | 0.27 | 3.4
O=C(Cn1ncc2c([nH]c3ccccc32)c1=O)Nc1cccnc1 | 1.6 | 2.3
CC(O)c1nc2ccccc2n1C(C)c1ccccc1 (stereo not drawn) | 0.3 | 0.03
O=C1Nc2ccccc2N(O)N1c1cc(-c2cccc(Cl)c2)no1 | 1.5 | 0.14
COc1ccc(CCNC(=O)c2cn(C)c3ccc(S(=O)(=O)N4CCOCC4)cc3c2=O)cc1OC | 0.52 | 1.2

Overlap with the part before: 4 entries, followed by the next part.
SMILES | KCNQ2 pot | KCNQ2 pot baseline
O=C(Cn1ncc2c([nH]c3ccccc32)c1=O)Nc1cccnc1 | 1.6 | 2.3
CC(O)c1nc2ccccc2n1C(C)c1ccccc1 (stereo not drawn) | 0.3 | 0.03
O=C1Nc2ccccc2N(O)N1c1cc(-c2cccc(Cl)c2)no1 | 1.5 | 0.14
COc1ccc(CCNC(=O)c2cn(C)c3ccc(S(=O)(=O)N4CCOCC4)cc3c2=O)cc1OC | 0.52 | 1.2
Cc1cccc(NC(=O)c2cc([N+](=O)[O-])ccc2Cl)c1O | 1.1 | 0.69
COc1ccc(NC(=O)Nc2ccccc2C(N)=O)cc1 | 0.16 | 0.51
COc1cccc2[nH]c(C(=O)NC(C)c3ccccc3)cc12 (stereo not drawn) | 2.5 | 0.88
Cc1cccc(CN2CCSCC2)c1 | 0.03 | -0.45
Cc1ccc(S(=O)(=O)Nc2ccccc2)cc1C(=O)N1CCCC1 | 0.9 | 0.16
NC1=NC(=O)/C(=C/C=C/c2cccs2)S1 | 1.1 | 0.01
CCc1c(C)sc(NC(=O)c2cccs2)c1C(N)=O | 0.49 | 1.2
CCC(Sc1nc2cc(OC)c(OC)cc2c(=O)n1Cc1ccco1)C(=O)NCCOC (stereo not drawn) | 0.39 | -0.85
CCOC(=O)C1CCCN(Cc2ccc(OC)cc2OC)C1 (stereo not drawn) | 0.01 | 0.01
COc1ccc(CNC(=O)C2CCC(=O)N(CCCN3CCCC3=O)C2)cc1 (stereo not drawn) | 0.57 | 0.72
C[C@H]1CN=C(Nc2ccccc2)N1CCC1CCCCC1 | 1.1 | -0.07
Cc1c(/C=C/C(=O)c2ccccc2O)cnn1C | 1.5 | -2.7
O=C(O)CCCCCNC(=O)/C(=C\c1ccco1)NC(=O)c1ccco1 | 1.2 | 0.68
O=C(NCc1ccccc1Cl)NC(=O)c1ccccc1 | 0.5 | -0.05
CC(Oc1ccc2ccc(=O)oc2c1)C(=O)NC1CCN(Cc2ccccc2)CC1 (stereo not drawn) | 0.34 | 0.08
COc1cc([N+](=O)[O-])ccc1-c1ccc(/C=N/NC(=O)c2ccccc2O)o1 | 0.26 | 0.34
CCCc1cc2c(-c3ccccc3)cc(=O)oc2cc1OCc1ccc(C(=O)O)o1 | 5.1 | -0.98
CCOc1ccc(OCCC(=O)NNC(=O)c2cc(C)oc2C)cc1 | 2 | -0.42
CN(CC(O)COc1ccc(OCC(O)CN(C)C2CCCCC2)cc1)C1CCCCC1 (stereo not drawn) | 0.08 | 0.17
COc1ccc(OC)c(NC(=O)CSCC(=O)O)c1 | 0.01 | -0.25
COc1ccc(C(=O)NNC(=O)c2ccc(S(=O)(=O)N3CC(C)OC(C)C3)cc2)cc1 (stereo not drawn) | 0.74 | 1.2
O=C1CC(N2CCN(c3ccccc3)CC2)C(=O)N1c1cccc(Br)c1 (stereo not drawn) | 1.2 | -0.05
Cc1cccc(C)c1NC(=S)N(CCCN1CCCCC1)Cc1ccco1 | 0.88 | -1.2
CCOC(=O)CNC(=O)c1ccc2[nH]c3ccccc3c2c1 | 1.2 | -0.04
Oc1ccc(C=Nc2cccc3ccccc23)c(O)c1 | 1.3 | 0.01
(next part)
SMILES | KCNQ2 pot | KCNQ2 pot baseline
COC(=O)c1ccccc1NC(=O)c1cc([N+](=O)[O-])nn1Cc1ccccc1 | 0.53 | 0.53
Cc1c(Cl)cccc1NC(=O)CCNC(=O)N1CC(=O)Nc2ccccc21 | 2 | -1
CC(=O)NC1C(=O)N=C(SCC(=O)NC2CCCCC2)NC1=O (stereo not drawn) | 0.67 | 0.49
O=C(NNC(=S)Nc1ccc(Br)cc1Cl)c1ccncc1 | 1.7 | -0.4
COC(=O)C1=CN(C)C=C(C(=O)OC)C1c1ccc(O)c(OC)c1 | 0.66 | 0.03
Cc1ccc(/C=N/NC(=O)Cc2cccn2C)s1 | 0.04 | -0.72
O=C(COc1ccc2c(c1)oc(=O)c1ccccc12)NC(Cc1ccc(Cl)cc1)C(=O)O (stereo not drawn) | 0.2 | -0.97
CC1=CC(=C(C#N)C#N)C=C(C)N1Cc1ccc(Cl)cc1 | 0.14 | 0.26
O=C(O)c1ccc(NS(=O)(=O)c2ccc(C(=O)Nc3ccccc3)cc2)cc1 | 0.73 | 0.16
CCOC(=O)N1CCN(C(=O)c2ccc(NC(=O)CC)cc2)CC1 | 0.42 | 0.07
Cc1ccc(NS(=O)(=O)c2cccc3nsnc23)cc1C | 0.44 | -2.6
C/C(=N\Nc1ccccn1)c1ccc(N2CCOCC2)cc1 | 0.15 | -2.9
CCOc1c(Cl)cc(Cl)cc1CNCCNCCO | 0.01 | 1.4
Cn1cc(S(=O)(=O)N2CCc3ccccc3C2)c(=O)n(C)c1=O | 0.46 | 0.11
O=C(Nc1nc(-c2ccccc2Cl)cs1)c1cccnc1 | 0.89 | 1.8
CC(C(=O)N1CCOCC1)N1C(=O)C2C3C=CC(C4CC34)C2C1=O (stereo not drawn) | 0.61 | -1.2
COCCCNC(=O)CCCCCNS(=O)(=O)c1ccc(Br)cc1 | 0.99 | -0.67
O=C(Nc1ccc(Br)cn1)C1CCCN1S(=O)(=O)c1ccccc1 (stereo not drawn) | 0.83 | -0.57
O=C(N/N=C/c1ccco1)c1cc(-c2ccc3ccccc3c2)n[nH]1 | 9.2* | -2.2*
CCOC(=O)C1CCCN(C(=O)c2ccc(OC(C)=O)cc2)C1 (stereo not drawn) | 1.2 | -2
Cc1ccc(NC(=S)c2ccc3ccccc3n2)c(C)c1 | 0.76 | -0.63
COc1ccc(Cl)cc1C(=O)Nc1ccc(NC(=O)C(C)C)cc1 | 0.08 | -0.7
CN(C)S(=O)(=O)c1cccc(COC(=O)c2cccnc2Cl)c1 | 0.65 | -0.4
CCCN1CCN(C(=O)c2noc3c2COc2ccc(C)cc2-3)CC1 | 1.3 | -0.55
CN1CCN(S(=O)(=O)c2ccc(NC(=S)NC(=O)C3CCC3)cc2)CC1 | 1.9 | 0
(listing goes on)
SMILES | KCNQ2 pot | KCNQ2 pot baseline
Cn1c(=O)[nH]c(=O)c2c1nc(N/N=C/c1cccnc1)n2Cc1ccc(Cl)cc1 | 0.58 | -1.4
CC(=O)Oc1ccc(C(=O)Cc2ccc3ccccc3n2)c(O)c1C | 0.69 | -0.25
CCOC(=O)N1CCC(NC(=O)c2ccc3nc4ccccc4c(=O)n3c2)CC1 | 0.67 | -0.41
NC(=O)c1ccc(NC(=O)COC(=O)CCC(=O)c2ccc(Cl)cc2)cc1 | 0.68 | 0.32
Cc1ccc(S(=O)(=O)N(C)C)cc1NC(=O)c1cc(=O)[nH]c2ccccc12 | 0.65 | 2.2
COCCN(C(=O)CNC(=O)c1ccco1)C(C(=O)NC1CCCCC1)c1cccnc1 (stereo not drawn) | 1.2 | 0.78
S=C1NCCNC(=S)NCCOCCN1 | 0.66 | 0.2
CC1(NC(=O)CCc2nc3sc4c(c3c(=O)[nH]2)CCCC4)CCS(=O)(=O)C1 (stereo not drawn) | 0.2 | -1.1
COCCCNc1nc2ccccc2nc1NS(=O)(=O)c1ccc(Cl)cc1 | 1.4 | -0.06
CCOC(=O)c1ccc(Oc2cc(C)nc(Cl)n2)cc1 | 0.12 | -0.01
CC(=O)c1c(C)[nH]c(C(=O)COc2cc(C)ccc2C(C)C)c1C | 2.3 | 0.07
COC(=O)c1ccccc1NC(=O)CSc1nccc(C)n1 | 1.6 | -1.4
[O-][n+]1c2c(nc3c1-c1ccccc1C3O)CCCC2 (stereo not drawn) | 0.18 | -0.33
Cc1ccc(S(=O)(=O)NCCCCC(NC(=O)OC(C)(C)C)C(=O)O)cc1 (stereo not drawn) (tested in a mixture with another compound) | 0.19 | -0.81
CCn1c(=O)n(CC)c2cc(S(=O)(=O)NCCOc3ccccc3)c(C)cc21 | 1.1 | -1
CCOC(=O)N1N=C(C)CC1(O)c1ccccc1 (stereo not drawn) | 0.8 | -1.9
CCOC(=O)N1CCN(CCC(=O)Nc2ccc(OC)cc2)CC1 | 1.2 | -1.3
COc1cc(C(=O)NCC(=O)N/N=C/c2c(C)[nH]c3ccccc23)cc(OC)c1OC | 0.03 | -0.08
Cc1ccc([N+](=O)[O-])cc1S(=O)(=O)N1CCCC1 | 0.81 | 0.08
CCOC(=O)C1=C(CC)Nc2ccccc2N=C1NC(=O)CCN1C(=O)C2CCCCC2C1=O (stereo not drawn) | 0.16 | -0.55
COc1ccc(NC(=O)Nc2cccs2)cc1Cl | 1.9 | -0.37
O=C(C(=O)N1CCN(c2ccccc2)CC1)c1cn(CC(=O)N2CCCCCC2)c2ccccc12 | 0.78 | 0.44
Cc1ccc(/C=C(\CCC(=O)O)c2nc3ccccc3s2)cc1[N+](=O)[O-] | 0.94 | -0.01
COc1ccc(C2(O)CCN(C(=O)c3c(F)cccc3F)CC2)cc1 | 0.88 | -0.28
CC(=O)N1CCN(C2=NC(=O)/C(=C\c3cccs3)S2)CC1 | 2 | 0.09

2 entries drawn at random from the list so far, as already listed:
SMILES | KCNQ2 pot | KCNQ2 pot baseline
COc1ccc(NC(=O)Nc2cccs2)cc1Cl | 1.9 | -0.37
CC(=O)N1CCN(C2=NC(=O)/C(=C\c3cccs3)S2)CC1 | 2 | 0.09

Next structures.
SMILES | KCNQ2 pot | KCNQ2 pot baseline
CSC1=N/C(=C\c2ccccc2)C(=O)N1C | 0.86 | 0.09
O=C(NCCN1CCCC1)c1ccc(Br)cc1 | 0.32 | -1.3
CCN(CCCNC(=O)c1c(C)cc(=O)oc1C)c1ccccc1 | 1.5 | -1.9
O=C(O)CCn1c(=S)n(CCC(=O)O)c2ccccc21 | 0.68 | -0.01
CCOC(=O)c1c(C)c(C(=O)Nc2ccc(F)cc2)c(C)n1C | 0.35 | 0.49
CC1CN(C(=O)c2ccc(C(=O)c3ccccc3)cc2)CC(C)O1 (stereo not drawn) | 1.6 | 0.15
COc1ccc(CCN(C)Cc2cccc3ccccc23)cc1OC | 2.1 | -0.98
CCCn1c(CN2CCCCC2CC)nc2c1c(=O)n(C)c(=O)n2C (stereo not drawn) | 1.2 | -1.5
CCCN1C2CCCC1CC(NC(=O)C1CCCCC1)C2 (stereo not drawn) | 0.57 | 0.1
CCCc1cc(=O)[nH]c(Nc2ccc(OC)c(Cl)c2)n1 | 1.8 | 0.1
COc1ccc(S(=O)(=O)NC(C)C(=O)N2CCCC2)cc1Cl (stereo not drawn) | 0.21 | -0.16
COc1cccc(N2C(=O)Nc3ccccc3C2(O)C(=O)NCc2ccc3c(c2)OCO3)c1 (stereo not drawn) | 0.77 | -0.28
Cc1cc(C(=O)CSc2nc3ccccc3[nH]2)c(C)n1Cc1ccco1 | 0.01 | 0.79

Entries of single compounds from above. Values in the order: KCNQ2 pot | KCNQ2 pot baseline
CCN(CCCNC(=O)c1c(C)cc(=O)oc1C)c1ccccc1 as listed: 1.5 | -1.9
CSC1=N/C(=C\c2ccccc2)C(=O)N1C as listed: 0.86 | 0.09
COc1ccc(S(=O)(=O)NC(C)C(=O)N2CCCC2)cc1Cl (stereo not drawn) as listed: 0.21 | -0.16
O=C(O)CCn1c(=S)n(CCC(=O)O)c2ccccc21 as listed: 0.68 | -0.01
CCOC(=O)c1c(C)c(C(=O)Nc2ccc(F)cc2)c(C)n1C as listed: 0.35 | 0.49

Some of the compounds tested; count on the stated rates, not on these rows.
